# HSD17B inh = inhibitors of human HSD17B10 dehydrogenase; Q99714; recombinant HSD17B10, NADH fluorescence kinetic; many of its hits are not listed in these tables; Potency, µM (titrated, usually from 57.1 µM), inactives show top-dose activity change, negative = inhibition, actives largely listed as inhibitors; hit rate 7.6% among 75,000; AID 893; active means well fitted inhibition curve with a large enough effect; inconclusive means small, poorly fitted or top-dose-only effect; inactive means no such curve, though single readings can be large or run the other way;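 further: the protocol describes HADH2 (HSD17B10) and not the HSD17B4 of the title; nearly all actives have a fitted effect of over 70% in size; most hits overshoot -100% by far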
#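 20 nM HADH2, pH 9.0 Tris/Tween; cpd preinc 15 min RT; start w/ 1 mM NAD+ + 90 uM b-hydroxybutyryl-CoA; kinetic fluor ex360/em450 q30s x 4 min; delta last-first.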
# * marks the source's active call; other numbers are inactive results; ? = inconclusive; [ ] = dose if it differs, or a comment. On the % scale 0 is the no-effect control and ±100 the full control effect; potency means the concentration at half of the fitted maximal effect. These rows are one share of the data. The share of hits here may be higher or lower than overall.
SMILES,HSD17B inh
O=C(O)CCC(=O)Nc1ccc(S(=O)(=O)N2CCCC2)cc1,3%
CC1(C)CC(=O)C(C=NCCC2=CCCCC2)=C(O)C1,32µM*
CCn1nnc(NC(=O)c2cccnc2)n1,-29%
O=C(NCCc1ccc(S(=O)(=O)N2CCCC2)cc1)c1cccs1,-4%
CCCCC(c1nnnn1C1CCCC1)N1CCN(C2CCCC2)CC1 (stereo unspecified),-3%
COC(=O)c1ccc(OCC(O)CN(CC(C)C)CC(C)C)cc1 (stereo unspecified),-12%
O=C(CSc1ncn(-c2ccccc2)n1)Nc1ccc2c(c1)OCCO2,0%
CCN(CC)CCN(CC)Cc1ccccc1Br,6%
C=CCNC(=O)CCCCC(=O)NCC=C,15%
CCOc1ccc(Nc2oc(Cc3ccccc3)nc2C#N)cc1,-16%

# Next section (three carried over from the part before).
SMILES,HSD17B inh
CCN(CC)CCN(CC)Cc1ccccc1Br,6%
C=CCNC(=O)CCCCC(=O)NCC=C,15%
CCOc1ccc(Nc2oc(Cc3ccccc3)nc2C#N)cc1,-16%
CC1=C(C(=O)N2CCOCC2)C(c2cccs2)NC(=O)N1 (stereo unspecified),-8%
Cc1ccccc1NC(=O)c1ccc(NC(=O)c2ccco2)cc1,1%
O=C(NCc1cccs1)C1CCCN(S(=O)(=O)c2ccc(Br)s2)C1 (stereo unspecified),11%
N#Cc1cccc(NC(=O)N2CC3(CCN(C(=O)c4ccco4)CC3)C2)c1,-6%
Cc1ccccc1N(C(=O)Cn1nnc2ccccc21)C(C(=O)NCc1ccco1)c1ccncc1 (stereo unspecified),-11%
Cc1cc(NC(=O)COC(=O)COc2cccc3c2OC(C)(C)C3)no1,6%
CC(=O)c1cccc(S(=O)(=O)N(CCCO)Cc2cc3ccc(C)cc3[nH]c2=O)c1,-28%
O=C(COC(=O)c1ccc(Br)o1)NCc1ccco1,-25%
O=C(C1CCCN1C(=O)c1cccs1)N1CCN(Cc2ccc3c(c2)OCO3)CC1 (stereo unspecified),10%
O=C(O)c1ccccc1SC1CC(=O)N(C2CCCCC2)C1=O (stereo unspecified),-4%
O=C(NCC1CCCO1)c1ccccc1-c1nc(-c2ccc(Cl)cc2)no1 (stereo unspecified),5%
Oc1ccc(-c2nc(-c3ccc(F)cc3)c(-c3ccncc3)[nH]2)cc1,32µM*
CCOC(=O)C1CCN(C(=O)CC2C(=O)N(Cc3ccccc3)C(C)c3nc4ccccc4n32)CC1 (stereo unspecified),4%
O=C(NCc1ccco1)C(c1ccc(F)cc1)N(CC1CCCO1)C(=O)Cn1nnc2ccccc21 (stereo unspecified),2%
Nc1cc(N)nc(SCCN2CCCCC2)n1,5%
COC(=O)[C@H](CCSC)NC(=O)Nc1ccc(C)c(C)c1,4%
CC(C)[C@H](NC(=O)[C@@H]1CSCN1C(=O)OC(C)(C)C)C(=O)NCC1CCC(C(=O)O)CC1 (stereo partly specified),2%
O=c1c2ccccc2nc(SCc2ccccc2)n1Cc1ccco1,?
CCN1C(=O)[C@H]2[C@H]3[C@H](O)[C@H](O)C/C(=N/NC(=O)OCc4ccc(OC)cc4)[C@H]3CC[C@@H]2C1=O,-4%[11.4 µM]
Cc1c(N=Cc2cc3c(cc2Cl)OCO3)c(=O)n(-c2ccccc2)n1C,-6%
Cc1cc(C)c2c(=O)n(CC(=O)N3CCC(N4CCCCC4)CC3)sc2n1,25µM*
O=C(CN1CC(c2ccccc2)CC1=O)OCc1ccccc1F (stereo unspecified),5%
O=C1C(=O)c2ccccc2C(O)=C1C1CCC(c2ccc(Cl)cc2)CC1 (stereo unspecified),1%
COCCNC(=O)COc1cccc(Oc2ccccc2)c1,8%
CC(C)Cc1nc2oc3c(NCC4CCCO4)ncnc3c2c2c1CCC2 (stereo unspecified),6.3µM*
COc1ccc(N(CC(=O)Nc2ccc3c(c2)OCCO3)S(C)(=O)=O)c(OC)c1,0%
C=C1C(CCl)(CCl)C2(Cl)C(Cl)C(Cl)C1(Cl)C2(Cl)Cl (stereo unspecified),5%
O=C(NCCN1CCOCC1)c1cc2ccccc2o1,9%
O=C(NCc1ccccc1)c1cccnc1N1CCOCC1,3%
Cc1cc(OCC(=O)NCCCN2CCOCC2)cc(C)c1Cl,4%
C[C@@H](C(=O)Nc1ccc2ccccc2c1)[C@@H]1C[C@@]1(C)[C@@H](NC(=O)OCc1ccccc1)c1ccccc1,5%
COc1ccc(NC(=O)N2CCCC2C(=O)Nc2ccc(C)c(Cl)c2)cc1 (stereo unspecified),2%
Cc1cc(C)nc(N2CCC(C(=O)Nc3ccc4c(c3)CCC4)CC2)n1,8%
COc1cccc(-c2nccc(NCc3cccs3)n2)c1,0%
O=C(NCCc1ccccc1)c1ccccc1NS(=O)(=O)N1CCCC1,32µM*
CCOC(=O)c1cc(CC)sc1N,-2%
CCCC[C@@H]1C[C@H]1[C@@H](NP(=O)(c1ccccc1)c1ccccc1)c1ccccc1OC,2%
c1ccc(OCCN2C3=NCCN3c3ccccc32)cc1,0%
Cc1ccc(S(=O)(=O)N2CCN(C(=O)c3ccc(OCc4c(C)noc4C)cc3)CC2)cc1,5%
CCOC(=O)c1ccc(NC(=O)N2CCN(c3ccccn3)CC2)cc1,32µM*
CCC(=O)N1CCN(c2ccccc2NC(=O)c2cccc(C)c2)CC1,6%
CCOC(=O)C1CCN(C(=O)CN(c2ccc(Cl)c(C(F)(F)F)c2)S(C)(=O)=O)CC1,-9%
CC(=O)c1cccc(NC(=O)N2CCCc3ccccc32)c1,-1%
O=C(NCC(c1cccnc1)N1CCN(c2ccc(F)cc2)CC1)c1cccc(Cl)c1 (stereo unspecified),10%
CC#N,-3%
CCN(CC)C(=O)CSc1nc(C)cc(-c2cccs2)c1C#N,?
O/N=C1\CCCc2oc3c(c21)CCCC3,1%
COc1ccc(CNC(=O)C(C#N)c2nc3ccccc3nc2N2CCN(C)CC2)cc1 (stereo unspecified),6%
O=c1cnc2cnc(N3CCOCC3)nc2n1CCc1ccccc1,-5%
FC(F)(F)c1ccc(CN2C[C@@H]3C(c4ccc(Cl)nc4)C4(c5cccnc5)CC3(C4)[C@H]2c2ccccc2)cc1 (stereo partly specified),-23%
# The listing continues:
SMILES,HSD17B inh
CC(=O)c1ncnn1CC(=O)c1ccc(Cl)cc1Cl,3%
CCC(=O)Nc1nc2ccccc2n1CCN1CCOCC1,4%
O=C(COc1ccccc1)N1CCNC1=O,7%
O=C1NC2(Nc3ccccc31)C(=O)Nc1ccccc12 (stereo unspecified),?
COc1cccc(C(=O)N(CN2CCCC2=O)c2ccccc2OC)c1,11%
CCCC(CCC)C(=O)Nc1ccncc1,5%
CC(=O)NCCSC(=O)c1ccc(F)cc1,2%
CCCCCC(=O)Nc1ccc(N2CCN(CC)CC2)c(Cl)c1,-17%
O=C(c1cccc(-n2cnnn2)c1)N1CCOCC1,0%
CC(C)C(=O)Nc1cccc(-c2nc3ccccc3o2)c1,-30%
Cc1cc(N2CCC(C(=O)NC3CC3)CC2)nc(-c2ccccc2)n1,7%
Fc1cnc(N2CCN(c3ccccc3)CC2)nc1N1CCN(c2ccccc2)CC1,-6%
COc1ccc(-c2nc3cnc(Oc4ccccc4)nc3n(Cc3cccs3)c2=O)cc1,13µM*
CC(=O)Oc1ccc2c(c1)CCC1C2CC[C@]2(C)C(OC(C)=O)CCC12 (stereo partly specified),5%
CCCS(=O)(=O)N1CCC(C(=O)NCCc2ccc(OC)c(OC)c2)CC1,-7%
CCOC(=O)C1CCN(C(=O)CCc2ccccc2)CC1,1%
CCOC(=O)c1sc2ccc(S(=O)(=O)N3CCCCC3)cc2c1N,?
COc1cccc(-n2nnnc2SCC(=O)NCc2ccco2)c1,1%
COc1cccc(N2C(=O)C3CCCN3C2c2ccc(F)cc2)c1 (stereo unspecified),-1%
CCCCNc1cc(NC(C)=O)cc2cc(OC)c(OC)cc12,?
COC(=O)c1cc(Oc2ccc(C(=O)OC)cc2N)cc(C(=O)OC)c1,3%
CCc1nc(C)cn1S(=O)(=O)c1cc(Br)ccc1OC,0%
CCOC(=O)C1CCCN(c2ncnc3c2cnn3-c2ccc(Cl)cc2)C1 (stereo unspecified),?
COc1ccc(CNC(=O)C2CC=CCC2C(=O)O)cc1OC (stereo unspecified),?
CCOC(=O)CNC(=O)CSc1nnnn1-c1cc(C)ccc1C,2%
CC(=O)[C@H](C(=N)C#N)C(=O)Nc1ccccc1,1%[11.4 µM]
CCOC(=O)N1CCC(NC(=O)c2cccnc2SC)CC1,3%
c1ccc(-c2csc3ncn4cnnc4c23)cc1,1%
c1ccc(-c2noc(-c3cccnc3)n2)nc1,11%
Cc1nc(CNS(=O)(=O)c2ccc3c(c2)CCCC3)cs1,-8%
O=C(Nc1c[nH]c(=O)[nH]c1=O)Oc1ccccc1,0%[11.4 µM]
O=S(=O)(c1cccs1)n1nnc2ccccc21,-1%
CC(C)(C)OC(=O)N1CCC[C@H]1C(=O)NCC1CCC(C(=O)O)CC1 (stereo partly specified),3%
CCC(=O)N1CCN=C1SCc1ccccc1Cl,1%
Cn1cnc([N+](=O)[O-])c1Sc1nc(N)nc2c1ncn2[C@H]1C[C@H](O)[C@@H](CO)O1,9%[11.4 µM]
COc1ccc(C2=NOC(C(=O)Nc3ccc(C(C)=O)cc3)C2)cc1OC (stereo unspecified),-13%
Fc1ccc(CN2CCSCC2)cc1Br,-4%
COc1cccc(C2C(C(=O)c3cccs3)=C(O)C(=O)N2CCN(C)C)c1OC (stereo unspecified),-15%
Nc1nnc(COc2ccc(Br)cc2Br)s1,-6%
c1ccc(OCCn2cnc3ccccc32)cc1,-2%
CCN(CC)c1ccc(NC(=O)C2CCCN(S(=O)(=O)c3cccnc3)C2)c(C)c1 (stereo unspecified),-5%
Clc1ccc2c(c1)CNc1c(ncnc1N1CCOCC1)O2,1%
CCOc1ccc(OCc2ccc(C(=O)OCc3ccccn3)o2)cc1,-10%
CCCc1cc(=O)[nH]c(NCc2ccc(Cl)cc2)n1,9%
CCOc1ccccc1-c1cc(-c2ccc(OC)cc2)nc2c1c(=O)n(C)c(=O)n2C,-1%
COc1ccc2c(c1)C(C)=CC(C)(C)N2C(=O)CNCc1ccc2c(c1)OCO2,9%
N#Cc1nc(-c2ccc(OCc3ccccc3)cc2)oc1NCc1ccco1,32µM*
O=C(O)c1cc2ccccc2c(S(=O)(=O)O)c1O,5%[11.4 µM]
COCc1[nH]nc2c1C(c1ccccc1Cl)C(C#N)=C(N)O2 (stereo unspecified),-6%
CCOc1ccccc1OCC(O)CNC (stereo unspecified),-3%

# Part of the list above in a different format:
Clc1ccc2c(c1)CNc1c(ncnc1N1CCOCC1)O2
  HSD17B inh: 1%
COCc1[nH]nc2c1C(c1ccccc1Cl)C(C#N)=C(N)O2 (stereo unspecified)
  HSD17B inh: -6%
CCOc1ccccc1OCC(O)CNC (stereo unspecified)
  HSD17B inh: -3%
CCOc1ccccc1-c1cc(-c2ccc(OC)cc2)nc2c1c(=O)n(C)c(=O)n2C
  HSD17B inh: -1%

# More results.
SMILES,HSD17B inh
CCCCC/C=C\C[C@H](O)/C=C\c1cccc(C[C@H](O)CCCCO)n1,-3%
Cc1cc2ccccc2c(=O)n1CC(=O)NCC(=O)N(C)Cc1ccccc1,?
CCOc1ccc(S(=O)(=O)N(C)c2ccc(OCC(=O)OCc3c(C)noc3C)cc2)cc1,9%
COc1ccc2nc(SCC(=O)NC(C)C)[nH]c2c1,6%
c1c[nH]c(CN2CCOCC2)n1,3%[11.4 µM]
COC(=O)C1=C(C)NC(C)=C(C(=O)OCCSc2ccccc2)[C@@H]1C,40µM*
COc1cc(NS(=O)(=O)c2ccc(F)cc2)c(OC)cc1NC(=O)C1CC1,8%
COc1ccc(S(=O)(=O)N(CCc2ccccc2)CC(=O)N2CCOCC2)cc1,13%
CC(NC(=O)Cc1ccccc1)c1nc2ccccc2[nH]1 (stereo unspecified),2%
O=CNc1ncn[nH]1,3%[11.4 µM]

# Overlap with the part before: three entries; new compounds follow.
SMILES,HSD17B inh
COc1ccc(S(=O)(=O)N(CCc2ccccc2)CC(=O)N2CCOCC2)cc1,13%
CC(NC(=O)Cc1ccccc1)c1nc2ccccc2[nH]1 (stereo unspecified),2%
O=CNc1ncn[nH]1,3%[11.4 µM]
COC(=O)c1cc(S(=O)(=O)n2nc(C)cc2C)c(Cl)cc1Cl,-1%
O=P(O)(CP(=O)(c1ccccc1)c1ccccc1)c1ccccc1,6%
O=C(c1cnccn1)N(c1ccccc1)C1(C(=O)NC2CCCCC2)CCCCC1,0%
Cc1ccc(CCCC(=O)O)cc1C,6%[11.4 µM]
CN(C)c1ccc(NC(=S)c2ccccn2)cc1,-27%
O=C(NCCc1ccccc1)C1CCN(S(=O)(=O)c2cccc3nonc23)CC1,11%
CCOC(=O)c1c(NC(=O)CN2CCN(c3ccccn3)CC2)sc2c1CCCC2,1%
Brc1ccc(-c2nnc3sc(CNCc4ccc5c(c4)OCO5)cn23)cc1,0%
CCN(CC)S(=O)(=O)c1ccc(-c2nnc(SCc3nnc(-c4ccccc4)o3)o2)cc1,9%
CC(C)CC(c1nnnn1Cc1ccccc1)N1CCN(C(=O)c2ccco2)CC1 (stereo unspecified),-1%
COc1cc2nc(SCC(=O)NC3CC3)n(CCC3=CCCCC3)c(=O)c2cc1OC,0%
Cc1cc(N2C(=O)C3C4C=CC(C4)C3C2=O)no1 (stereo unspecified),6%
COc1ccc(C)cc1NC(=O)c1ccc(NC(=O)CC2SC(N3CCCC3)=NC2=O)cc1 (stereo unspecified),4%
Cn1c(=O)c2c(nc(Br)n2Cc2c(F)cccc2Cl)n(C)c1=O,12%
CCOc1ccccc1C1CC(=O)NC(SCC)=C1C#N (stereo unspecified),0%
ClCCCl,3%

# From PubChem BioAssay
